Ecoli rRNA inh: reduced GFP signal of wild-type E. coli, primary screen, bacterial rRNA inhibitor project, GFP/RFP fluorescence, OD600, single point. E. coli WT GFP vs humanized-ribosome RFP mutants, 24 h; stronger effect = lower value; DMSO median 0, no signal -100. GFP signal change (wild-type ribosome), % (concentration not given with the values). 350,000 tested, 1.6% active. AID 720706, 2013;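 active = significant combined selectivity score with lowered wild-type GFP, culture density cut under 30%, mutant RFP and density less affected; inactive = any of these conditions unmet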; note: one replicate is shown; some compounds called inactive have numbers as strong as hits
Calb FLC: C. albicans growth inhibition with fluconazole, primary screen, CaCi-2 strain, Alamar Blue fluorescence. 300,000 tested, 0.57% active. growth inhibition, % (test concentration not listed). C. albicans CaCi-2 (fluconazole-resistant clinical isolate) + fluconazole, 48 h. AID 1979, 2009;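 active = most replicates above 75%; inconclusive = exactly half above 75%; inactive = most below 75%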;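 note: all wells also contain fluconazole at 8 µg/ml as a sub-toxic cotreatment; 0% = median of DMSO wells and 100% = median of geldanamycin control wells; wells of about 8 µL received 7.5 nL stock; the first replicate is given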
ALR H2O2 inh: inhibitors of human ALR sulfhydryl oxidase, primary screen, biochemical, H2O2 detection, HRP-luminol luminescence, single point | purified ALR, DTT oxidation | 290,000 tested, 3.8% active | inhibition, % (test concentration not listed) | FAD-linked sulfhydryl oxidase ALR (Homo sapiens), P55789;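 active = mean and each replicate at 75% or more; inconclusive = only one of the two met; inactive = neither met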;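 note: stock transfer was 7.5 nL into about 7.5 µL; 0% = neutral wells and 100% = wells with inactivated enzyme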
Target sequence (P55789 whole entry, looked up): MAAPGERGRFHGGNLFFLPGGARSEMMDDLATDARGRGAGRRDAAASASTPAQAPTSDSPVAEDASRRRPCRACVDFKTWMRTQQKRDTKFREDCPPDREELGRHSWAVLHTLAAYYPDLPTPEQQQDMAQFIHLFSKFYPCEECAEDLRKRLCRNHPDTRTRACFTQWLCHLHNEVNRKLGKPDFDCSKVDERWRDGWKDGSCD
MLL AF4-AF9 inh: inhibitors of AF4 peptide binding to AF9, primary screen, biochemical, AlphaScreen, biotin-AF4 peptide, FLAG-AF9, single point | Protein AF-9 (Homo sapiens), P42568 | inhibition, % at 10 µM | 350,000 tested, 0.47% active;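 active = every replicate reaching a set inhibition limit, whatever the replicate mean, cut at about 25% in these data; inconclusive = mean inhibition reaches that limit but some replicates miss it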;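 note: 0% = plate neutral control median and 100% = total signal loss; the record names both 10 and 1 µM as test concentration; the first replicate is given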
Target sequence (P42568 whole entry, looked up): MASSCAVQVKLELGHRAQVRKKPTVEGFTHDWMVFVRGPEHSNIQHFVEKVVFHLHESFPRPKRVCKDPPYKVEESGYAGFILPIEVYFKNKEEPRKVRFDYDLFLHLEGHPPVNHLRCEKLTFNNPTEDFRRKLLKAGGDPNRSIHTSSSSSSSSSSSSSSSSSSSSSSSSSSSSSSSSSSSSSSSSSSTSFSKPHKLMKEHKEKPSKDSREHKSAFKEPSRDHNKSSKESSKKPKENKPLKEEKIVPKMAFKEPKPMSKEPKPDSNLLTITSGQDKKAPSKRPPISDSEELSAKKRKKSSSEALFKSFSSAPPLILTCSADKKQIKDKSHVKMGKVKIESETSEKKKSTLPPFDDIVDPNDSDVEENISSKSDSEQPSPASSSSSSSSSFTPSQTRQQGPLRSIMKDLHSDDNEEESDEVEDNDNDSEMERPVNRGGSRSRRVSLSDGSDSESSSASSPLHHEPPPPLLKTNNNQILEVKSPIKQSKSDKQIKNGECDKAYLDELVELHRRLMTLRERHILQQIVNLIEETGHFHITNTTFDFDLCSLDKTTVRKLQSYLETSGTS
T cruzi inh: inhibitors of intracellular T. cruzi growth, primary screen, luminescence, NIH3T3 host cells. T. cruzi beta-gal in NIH3T3, 90 h. inhibition, % (concentration not given with the values). 300,000 tested, 1.4% active;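 active = mean inhibition across valid replicates above about 55%, limit read from the data; inconclusive = mean below that limit but half or more replicates reach it; inactive = mean below it, under half of replicates reach it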;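 note: signal also drops with host cell toxicity which is not excluded here; 0% = plate median of DMSO wells and 100% = zero luminescence signal; higher percent means less beta-gal luminescence so fewer parasites; stock transfer was 50 nL into about 50 µL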
RanGTP-Impb inh: inhibitors of RanGTP-importin-beta interaction, primary screen, biochemical, FRET, CFP-Ran, YFP-importin-beta, homogeneous; Ran GTPase (GTP-bound) - importin-beta complex; 300,000 tested, 1.1% active; cell-free CFP-Ran/YFP-importin-beta FRET ratio; AID 2216, 2009; inhibition, % (test concentration not listed);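 active = most replicates above 15%; inconclusive = exactly half above 15%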;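 note: 0% = DMSO wells and 100% = Ran loaded with GDP instead of GTP; wells of about 40 µL received 100 nL stock; the first replicate is given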
Beta cell apopt: inhibitors of cytokine-induced beta cell apoptosis, primary screen, luminescence. INS-1E cytokine-induced death, ATP luminescence, 48 h; percent of positive-control rescue, neutral wells zero. protection from apoptosis, % (test concentration not listed). 300,000 tested, 0.8% active. AID 435005, 2010;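 active = all replicates at 75% or more, or half of them and the mean; inconclusive = half reach 75% but not the mean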;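 note: 0% = cytokine-treated negative control wells and 100% = positive control rescue; higher means more ATP so stronger rescue from cytokine killing; wells of about 40 µL received 100 nL stock; the first replicate is given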
FGF22 binding: binders of human FGF22 protein, primary screen, FGF22 synaptogenesis inhibitor project, biophysical, thermal shift, single point; Fibroblast growth factor 22 (Homo sapiens), Q9HCT0; recombinant FGF22 thermal shift, SYPRO orange fluorescence; percent of sucrose octasulfate shift, DMSO zero; AID 651658, 2012; calls only at 9.99 µM; 340,000 tested, 1.5% active;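 active = melting point raised past a set limit in the mean and every replicate; inconclusive = no clear call; three in four hits are not shown here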
Target sequence (Q9HCT0 whole entry, looked up): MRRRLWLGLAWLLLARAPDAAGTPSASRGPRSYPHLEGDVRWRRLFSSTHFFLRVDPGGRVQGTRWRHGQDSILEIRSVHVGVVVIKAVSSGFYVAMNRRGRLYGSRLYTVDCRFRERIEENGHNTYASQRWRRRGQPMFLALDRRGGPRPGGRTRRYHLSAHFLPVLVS
Ecoli rRNA inh OD600: recorded beside Ecoli rRNA inh, whose call it bears; OD600 change, %; measured here: OD600 growth;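 optical density of the mix in the first replicate; 0 = DMSO median and -100 = no signal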
Ecoli rRNA inh RFP: also measured in Ecoli rRNA inh; calls as there; RFP signal change, %; measured here: RFP humanized mutant strains;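 first replicate; 0 = DMSO median and -100 = no signal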
* hit, by the source's call; i = inactive; ? = inconclusive; nt = not tested or not shown; & = joins results of further samples.

SMILES	Ecoli rRNA inh	Ecoli rRNA inh OD600	Ecoli rRNA inh RFP	Calb FLC	ALR H2O2 inh	MLL AF4-AF9 inh	T cruzi inh	RanGTP-Impb inh	Beta cell apopt	FGF22 binding
CC(=O)Nc1ccc(Nc2nc(-c3c(C)nc4ccccn34)cs2)cc1	-12	3	0.7	6	22	0.0	-18	?	5	i
CN1CCN(C(=O)C2=C[C@H](c3csc4ccccc34)C[C@H](OCc3ccc(CO)cc3)O2)CC1	-8	-7	23	-15	nt	-8.0&-4.4	12	0.5	-5	i
CCC(C)NC(=O)c1ccc(COc2ccccc2Cl)cc1 (stereo not given)	nt	nt	nt	35	-9	nt	17	-1.1	nt	nt
CN(c1ccccc1)S(=O)(=O)c1cccc(C(=O)OCC(=O)NCCCN2CCCC2=O)c1	-2	11	1.0	-11	21	0.9	-1	?	-3	i
O=C(CCC(=O)N(CC(=O)NC1CCCC1)Cc1ccc2c(c1)OCO2)Nc1nccs1	6	9	-2.0	-9	0	-1.4	-22	-3.4	1	i
c1ccc2sc(SCc3ccc(-c4nnco4)cc3)nc2c1	nt	nt	nt	-5	-4	nt	-8	-0.7	8	nt
Cc1ccc2cc(C)c3nnc(SCC(=O)N4CCN(C(=O)c5ccco5)CC4)n3c2c1	2	0	4.4	14	-7	nt	6	2.7	1	nt
COC(=O)c1cc(C)sc1NC(=O)CN1CCN(C(=O)C2CCCO2)CC1 (stereo not given)	-1	10	-2.2	?	nt	-0.6	10	-0.6	1	i
COc1cc(/C=N/NC(=O)c2ccc(O)cc2)ccc1OCC(=O)N1CC(C)OC(C)C1 (stereo not given)	8	7	1.2	-9	-9	0.2	-7	-1.1	-7	i
CCc1ccc(NC(=O)Cn2cnc3sc(C)c(S(=O)(=O)N4CCOCC4)c3c2=O)cc1	6	7	-2.2	-2	-5	-4.6	-6	2.2	-12	i
CC(C)(C)OC(=O)NCCCCCc1nnc(SCc2ccccc2F)o1	-37	-41	-4.3	13	1	-2.8	nt	6.1	nt	i
CCc1cc2c(=O)[nH]c(Cc3ccc(OC)cc3)nc2s1	0	1	7.8	27	-5	-7.4	-2	2.2	1	i
CC(Oc1ccccc1C(N)=O)C(=O)Nc1ccc(S(=O)(=O)N2CCCC2)cc1 (stereo not given)	7	3	1.2	1	31	-0.4	-4	-2.9	-1	i
COc1ccccc1OCC(=O)N/N=C/C=C/c1ccc([N+](=O)[O-])o1	-54	-79	-23	94*	nt	5.5	58*	-4.6	-9	i
COc1ccc(C)cc1NC(=O)/C=C/c1ccc(OC)c(S(=O)(=O)N2CCOCC2)c1	-7	-9	4.0	nt	-2	6.3	nt	nt	2	i
COC(=O)/C=C1/S/C(=N/NC(=O)c2ccccc2)NC1=O	nt	nt	nt	6	10	nt	-11	0.2	2	nt
O=C1CC(c2ccc3c(c2)OCO3)CN1 (stereo not given)	nt	nt	nt	-9	-9	nt	-21	-2.6	-2	nt
COC(=O)c1ccc2c(=O)n(CCN3CCOCC3)c(=S)[nH]c2c1	nt	nt	nt	44	17	nt	-1	-0.8	-3	nt
COc1ccc(-c2ccc(SCC(=O)N3CCCC3)nn2)cc1OC	nt	nt	nt	-2	-13	nt	-18	-2.2	4	nt
COc1ccc(Br)cc1S(=O)(=O)Nc1ncn[nH]1	11	7	-2.1	11	-5	0.4	-12	-4.4	4	i

Part of the list above, with values under each structure.
Screens in order – Ecoli rRNA inh, Ecoli rRNA inh OD600, Ecoli rRNA inh RFP, Calb FLC, ALR H2O2 inh, MLL AF4-AF9 inh, T cruzi inh, RanGTP-Impb inh, Beta cell apopt, FGF22 binding
COC(=O)/C=C1/S/C(=N/NC(=O)c2ccccc2)NC1=O
 : nt, nt, nt, 6, 10, nt, -11, 0.2, 2, nt
O=C1CC(c2ccc3c(c2)OCO3)CN1 (stereo not given)
 : nt, nt, nt, -9, -9, nt, -21, -2.6, -2, nt
COC(=O)c1ccc2c(=O)n(CCN3CCOCC3)c(=S)[nH]c2c1
 : nt, nt, nt, 44, 17, nt, -1, -0.8, -3, nt
COc1ccc(-c2ccc(SCC(=O)N3CCCC3)nn2)cc1OC
 : nt, nt, nt, -2, -13, nt, -18, -2.2, 4, nt

The list continues.
SMILES	Ecoli rRNA inh	Ecoli rRNA inh OD600	Ecoli rRNA inh RFP	Calb FLC	ALR H2O2 inh	MLL AF4-AF9 inh	T cruzi inh	RanGTP-Impb inh	Beta cell apopt	FGF22 binding
CCCN1Cc2cccc(C(=O)NCCCOC(C)C)c2C1=O	nt	nt	nt	-12	nt	nt	-5	1.3	2	nt
Cc1ccc(N2C(=O)[C@@H]3C(c4ccc(F)cc4)=NO[C@@H]3C2=O)cc1	nt	nt	nt	8	-2	nt	-5	3.9	-3	nt
COc1ccc(-c2cc(C(=O)Nc3ccc(O)cc3)c3ccccc3n2)cc1OC	-1	-6	-3.8	0	-5	-7.3	-13	1.2	-9	i
COC(=O)c1ccccc1NC(=O)CCS(=O)(=O)c1ccc(Br)s1	nt	nt	nt	0	-1	nt	-12	6.5	-11	nt
COc1ccc(CN(C)C(=O)Cc2ccc(S(=O)(=O)N3CCOCC3)s2)cc1OC	0	4	-3.8	nt	-9	-1.3	nt	nt	-5	i
CC1=CC(C)(C)NC(=O)N1c1ccc(C)cc1	2	9	-0.9	-19	-8	0.8	-5	2.5	-1	i
O=C(Nc1ccc(C(=O)O)cc1)/C(=C/c1cccc(Br)c1)NC(=O)c1ccco1	-16	-14	0.8	2	4	-1.2	-14	5.9	-3	i
COc1ccc(N2CCN(C(=O)CSc3ccccc3N)CC2)cc1	-3	-3	0.3	-30	?	11	8	1.9	nt	i
Cn1c(SCC(=O)N(Cc2ccccc2)C(C)(C)C)nc2ccccc21	-31*	-20*	5.5*	6	-11	12	17	-0.8	2	i
COc1cc(CNn2cnnc2)ccc1OCC(=O)NC1CCCCC1	nt	nt	nt	-25	-6	nt	-9	-2.9	-2	nt
CCn1c2c(c(C)cc1=O)C(=O)CC(C)(C)C2	nt	nt	nt	15	-22	nt	-15	1.7	-11	nt
Cc1ccc(C(c2c(C)[nH][nH]c2=O)c2c(C)[nH][nH]c2=O)cc1	14	15	-3.5	-11	-3	7.9	-14	-3.0	nt	i
CCc1ccccc1OCC(=O)NCC1COc2ccccc2O1 (stereo not given)	-35	-75	-12	nt	2	-30	nt	nt	-1	i
Cn1nc(C(F)(F)F)c(/C=N/OC(=O)c2ccccc2)c1SCc1ccccc1Cl	nt	nt	nt	22	-23	nt	-2	0.1	-16	nt
O=C(Nc1ccc2c(c1)OCO2)C(c1ccc(Cl)cc1)N1CCC2(CC1)OCCO2 (stereo not given)	nt	nt	nt	8	-7	nt	3	-0.2	1	nt
C/C(CC(=O)NCc1ccc(Cl)cc1)=N\NC(=O)Cc1ccccc1	nt	nt	nt	-3	4	nt	-8	2.0	0	nt
COc1cc(Cl)ccc1OCc1cc(C(=O)NC(C)Cc2cccnc2)no1 (stereo not given)	-5	-3	2.0	11	-2	1.3	0	6.9	2	i
COc1cccc(C(=O)Nc2ccc(NC(=O)c3cc4ccccc4o3)c(OC)c2)c1	7	6	-2.3	2	-7	-0.8	-9	?	4	i
Cc1ccc(S(=O)(=O)NCCC(=O)N2CCN(S(=O)(=O)c3ccccc3)CC2)cc1C	-3	-1	1.8	-3	2	-35	2	nt	-2	i
COc1ccc(C(=O)NCCC2=CCCCC2)cc1S(=O)(=O)N1CCOCC1	-4	-6	-0.2	-1	nt	-8.5	-2	-1.4	3	i
CC(CC(=O)Nc1nc2ccccc2[nH]1)n1ccnc1 (stereo not given)	9	10	0.5	45	1	1.5	-16	2.7	-1	i
O=C1NC2(CCCCC2)Cc2ccccc21	nt	nt	nt	4	-2	nt	-11	1.3	2	nt
O=C(CCN1c2ccccc2Sc2ccccc21)OCC(=O)N1CCN(C(=O)c2ccco2)CC1	nt	nt	nt	-2	91*	nt	-10	3.1	2	nt
Cc1ccc(C2C=C(c3ccc4c(c3)OCO4)Nc3ncnn32)cc1 (stereo not given)	nt	nt	nt	?	2	nt	3	-9.2	-6	nt
O=C(COc1ccc(Br)cc1F)NC1CCN(Cc2ccccc2)CC1	nt	nt	nt	-4	-25	nt	38	0.6	54	nt
O=C(N/N=C/c1cc([N+](=O)[O-])ccc1O)c1cccc2ccccc12	14	9	0.2	39	1	1.6	55*	-1.8	102*	i
CN(c1ccccc1C(=O)NCc1ccccn1)S(C)(=O)=O	nt	nt	nt	-14	nt	nt	-5	-3.1	-1	nt
CCc1ccc(CN2CCN(C(=O)c3cccc(OC)c3OC)CC2)cc1	-8	-8	-4.0	6	0	nt	15	1.9	6	nt
CC(=O)c1cccc(NC(=O)c2ccc3c(c2)OCO3)c1	10	9	-2.1	-3	-8	2.8	6	-2.8	3	i
Cc1ccc(OCC(=O)Nc2ccc(S(=O)(=O)Nc3cc(C)nc(C)n3)cc2)c(C)c1	0	-1	0.9	12	14	2.5	16	-2.8	-2	i
Cc1ccc2c(c1)-c1c(cnn1CC(=O)NC(C)CCc1ccco1)CO2 (stereo not given)	9	3	-2.7	-7	53	5.2	-4	4.2	-5	i
COc1ccc(NC2=CC(=O)CC(C)(C)C2)cc1OC	-1	-2	3.4	-7	-1	12	-4	?	-6	i
CCOC(=O)C1=C(c2ccccc2)NC(SCC(=O)Nc2cccc(C)c2)=C(C#N)C1c1ccco1 (stereo not given)	nt	nt	nt	8	-3	nt	29	4.2	-3	nt
O=C1CSc2ccc(S(=O)(=O)N3CCN(c4ccccc4F)CC3)cc2N1	-32	-33	-2.1	15	-15	-11	7	0.9	9	i
CN(CC(=O)Nc1ccc(F)c(F)c1F)c1ncnc2sccc12	-7	-17	-4.6	-14	-5	-1.6	0	5.8	0	i
CN(C(=O)COC(=O)c1ccc2c(=O)n3c(nc2c1)CCC3)c1ccccc1	nt	nt	nt	-3	0	nt	-13	5.1	0	nt
Cc1cccc(NC(=O)CNC(=O)CSc2ncccn2)c1C	4	8	-5.8	nt	-2	-1.9	nt	nt	3	i
COc1ccccc1N1CCN(C(=O)c2cc3ccccc3[nH]2)CC1	-16	-14	-2.6	11	-8	0.7	-2	-5.2	-1	i
COc1ccc(OC)c(-c2cc(C(=O)Nc3sc4c(c3C#N)CCC(C)C4)c3ccccc3n2)c1 (stereo not given)	nt	nt	nt	-2	-12	nt	20	-0.5	7	nt
CCn1c(CCC(=O)Nc2ccccc2F)nnc1SCC(=O)Nc1ccc(OC)cc1	0	1	-1.8	0	-1	-2.2	-7	-0.6	-1	i

Screening results (PubChem)

Some of the compounds tested; the hit share may differ from the screen's.
